From PubChem
H5N1 CPE: MDCK cell protection from H5N1 avian flu; cytopathic effect, luminescence, 72 h; hits give high values; no value below 0 was filed and about half of the inactive calls have no number; reference of the scale not given here; inhibition, % at 50 µM; 96,000 compounds, 0.07% hits; in the data active = inhibition above about 25%
An asterisk follows results filed as active; i = inactive. A portion of the library; the hit share may differ from the screen's.

SMILES | H5N1 CPE
COc1cc(C2Nc3ccc4ncccc4c3C3=C2C(=O)CCC3)cc(OC)c1O (configuration not stated) | 2.1
CN(C)CCNCc1ccccc1OC1CCCC1 | i
CC(=O)Cc1nsc(NC(=O)c2ccc(-c3ccccc3Cl)o2)n1 | i
CCN(CC)C(=O)C(=O)N/N=C/c1cccc(Br)c1 | 0.6
CC12CCC(C(=O)N3CCN(C(c4ccccc4)c4ccccc4)CC3)(OC1=O)C2(C)C (configuration not stated) | i
CCCCCn1c(Sc2ncccn2)nc2c1c(=O)[nH]c(=O)n2C | i
CSc1nsc(SC)c1C(=O)Nc1ccc(C)cc1 | 6.0
Cc1nc(SCC#N)c2c(C)c(C)sc2n1 | i
COc1cnn(C(C)(C)C)c(=O)c1Cl | i
CC(C#N)Sc1nc2ccccc2c(=O)n1-c1ccccc1 (configuration not stated) | i
CC1CCCc2sc3nc(N4CCN(CCO)CC4)n4ncnc4c3c21 (configuration not stated) | i
CC(C)=C(NC(=O)c1ccccc1)C(=O)N1CCOCC1 | 0.4
COc1ccc(-n2ccc(-c3nn(-c4cccc(C(F)(F)F)c4)ccc3=O)n2)cc1 | 0.8
Cc1cccc(-n2c(C)cc(/C=N/NC(=O)c3cccc([N+](=O)[O-])c3C)c2C)c1 | i
CCOC(=O)N(c1ccccc1)P1(=S)OCC(C)O1 (configuration not stated) | 0.5
Cc1ccc(/C=c2\sc3nc(-c4cccnc4)nn3c2=O)cc1 | i
CCCc1cc(=O)[nH]c(SCc2ccc(Cl)cc2)n1 | 0.9
CC(=O)Nc1cccc(OCC(=O)Nc2ccccc2)c1 | i
O=C(CCN1C(=O)c2ccccc2S1(=O)=O)Nc1ccc2c(c1)OCCO2 | i
Cc1ccc(C(=O)Oc2cc(C)n(C)c(=O)c2)cc1 | i
NC(=O)N1CC(O)CC1C(=O)Nc1ccc(Cl)c(Cl)c1 (configuration not stated) | i
COC(=O)c1cc(OC)c(OC)cc1NC(=O)Cc1ccccc1[N+](=O)[O-] | i
CC(C)C(c1nnnn1CC1CCCO1)N1CCN(C2CCCC2)CC1 (configuration not stated) | 1.6
c1ccc(CCc2nc(-c3ccccc3)no2)cc1 | i
CCSc1nncn1/N=C/c1ccc(OC)c(OC)c1 | i
SMILES | H5N1 CPE
COc1ccc2oc(=O)c(-c3nc(C)cs3)cc2c1 | i
CCOC(=O)N1CCN(S(=O)(=O)c2cc3c(cc2C)NC(=O)CO3)CC1 | 0.3
CCOc1ccc(-c2nnc(SCc3nc4ccccc4[nH]3)n2N)cc1 | i
COc1ccc(OC)c(Nc2nc(N)nc(CSc3nnc(N)s3)n2)c1 | i
CCOC(=O)c1ccc(N2C(=O)C3CC=C(C)CC3C2=O)cc1 (configuration not stated) | 0.3
CC1(C)C(=O)Nc2ccccc2N1C(=O)COC(=O)C1CCCCC1 | 0.8
COc1cccc(-c2cc(C(=O)Nc3nc4ccccc4s3)c3ccccc3n2)c1 | i
Cn1c(O)c(C=NCCOc2ccc(Cl)cc2)c(=O)n(C)c1=O | i
O=C(CSc1ccc2nnc(-c3cccnc3)n2n1)NCc1ccco1 | 21.0
Fc1ccc(C(c2nnnn2Cc2ccccc2)N2CCSCC2)cc1 (configuration not stated) | 1.4
CSc1ccc(/C=N/n2nnnc2N)cc1 | i
O=C(N/N=C/c1ccc([N+](=O)[O-])o1)c1cc(-c2ccncc2)nc2ccccc12 | i
COc1ccc(OCc2cnc(Cl)s2)cc1 | i
CC(C)(C)OC(=O)N1CC(O)CC1C(=O)OCC(=O)c1ccc(Cl)cc1 (configuration not stated) | i
CCn1c(COc2ccccc2)nnc1SCc1ccc(C#N)cc1 | 1.1
CC(C)Nc1nc(SCC(=O)Nc2ccccc2)nc(N2CCOCC2)n1 | i
CC(=O)Nc1cc2c(cc1C(=O)C(C)C)OCCO2 | 0.4
O=C(NCc1ccc2c(c1)OCO2)c1ccc(-c2ccc(Cl)cc2)o1 | 3.3
Cc1cc(C)cc(OCc2nnc(SCC(=O)OC3CCCCC3)o2)c1 | 0.8
O=C(Nc1nc(-c2cccs2)cs1)c1ccc(Cl)cc1 | i
CC(C)CN(C(=O)COC(=O)c1ccc2c(c1)NC(=O)CS2)C1CCS(=O)(=O)C1 (configuration not stated) | 0.4
Cc1cc(C)n(CCOC(=O)c2sc3ccccc3c2Cl)n1 | 1.6
COC(=O)c1ccccc1NC(=O)c1ccc(-c2ccc(Br)cc2)o1 | i
CC(C)NS(=O)(=O)c1ccc(CCC(=O)Nc2ccc3c(c2)OCO3)cc1 | i
CC(=O)Nc1ccc2oc(-c3cc(F)c(F)cc3Cl)nc2c1 | i

An excerpt of these results, as a markdown table:
| smiles | H5N1 CPE |
| --- | --- |
| CSc1nsc(SC)c1C(=O)Nc1ccc(C)cc1 | 6.0 |
| Cc1nc(SCC#N)c2c(C)c(C)sc2n1 | i |
| CCOC(=O)c1ccc(N2C(=O)C3CC=C(C)CC3C2=O)cc1 (configuration not stated) | 0.3 |
| O=C(NCc1ccc2c(c1)OCO2)c1ccc(-c2ccc(Cl)cc2)o1 | 3.3 |
| COC(=O)c1ccccc1NC(=O)c1ccc(-c2ccc(Br)cc2)o1 | i |
| CC(C)CN(C(=O)COC(=O)c1ccc2c(c1)NC(=O)CS2)C1CCS(=O)(=O)C1 (configuration not stated) | 0.4 |
| NC(=O)N1CC(O)CC1C(=O)Nc1ccc(Cl)c(Cl)c1 (configuration not stated) | i |

The list continues:
SMILES | H5N1 CPE
CCOc1ccccc1N1CCN(Cc2ccc(OC)c(OC)c2)CC1 | i
CCc1nnc(NC(=O)Cn2nnc(-c3ccccc3F)n2)s1 | i
O=S(=O)(c1cccs1)N1CCC(Cc2ccccc2)CC1 | 4.8
CCOc1ccc(C2=Nn3c(nnc3-c3cccnc3)SC2)cc1 | 1.5
CCCC(=O)Nc1ccc(C(=O)n2nnc3ccccc32)cc1 | 1.4
O=C(Nc1cccc2cccnc12)c1ccc2c(c1)OCCO2 | i
CC(C)CNC(=O)C(=O)NNC(=O)C1CCCCC1 | i
O=C(Nc1ccccc1C(=O)O)c1ccc(Cl)c(S(=O)(=O)N2CCOCC2)c1 | 0.5
COc1ccccc1CNC(=O)CNC(=O)Cn1cnc2ccccc2c1=O | i
C=CCNC(=O)c1onc(CCl)c1C(=O)OC | 0.0
CCOc1ccc(S(=O)(=O)N2CCC(C(N)=O)CC2)c2ccccc12 | i
CCc1nnc(NC(=O)CSc2nnc(COc3ccccc3C)o2)s1 | i
Cc1cccc(N2CC(=O)N(c3cccc(C)c3)CC2=O)c1 | 0.1
c1ccc2c(-c3nnc(SCc4cn5ccccc5n4)o3)c[nH]c2c1 | 0.8
COC(=O)C1=C2SC(C)C(=O)N2C(N)=C(C#N)C1c1ccc(OC)c(OC)c1 (configuration not stated) | i
Oc1ccc(Cl)cc1-c1cc(-c2ccco2)[nH]n1 | 5.4
CCC(=O)NC(=S)Nc1cccc(NC(=O)c2ccccc2Cl)c1 | i
C=CCn1c(COc2ccccc2)nnc1SCC(=O)N/N=C/c1cc(Cl)ccc1O | i
CC(NC(=O)c1ccc(Br)s1)C1CCCO1 (configuration not stated) | 0.8
CCOc1ccc(-c2nnn(CC(=O)N3CCN(c4ccc(F)cc4)CC3)n2)cc1OCC | 0.4
Cc1cc(=O)[nH]c2n[nH]c(-c3ccccc3)c12 | 0.6
CCN=C1SC(C(=O)Nc2cccc(OCC)c2)CC(=O)N1CC (configuration not stated) | i
COc1cc(C(=O)Nc2c(C)cc(C)cc2C)c(-n2cnnn2)cc1OC | 0.7
Cc1cc(OCC(=O)O)c2ccccc2n1 | i
COc1cc(S(=O)(=O)N2CCC(N3CCCCC3)CC2)ccc1-n1cnnn1 | 2.0
SMILES | H5N1 CPE
C=CCc1ccccc1OCC(O)CN1CCN(C(=O)OCC)CC1 (configuration not stated) | i
CCOCC(=O)Nc1nnc(COCC)s1 | i
Cc1cccc(-n2c(-c3ccco3)nc3ccccc3c2=O)n1 | 0.5
Cc1ccc(/C=C/c2nnc(-c3ccccc3)o2)cc1 | i
COc1ccc2nc(N3CCC(O)CC3)c(C#N)cc2c1 | 0.7
O=C1c2ccccc2C(=O)N1CC(=O)N1c2ccccc2CCc2ccccc21 | 0.5
COc1ccc(-c2nc3scc(-c4ccc(OC)c(OC)c4)c3c(=O)o2)cc1 | i
CC1CC(CC(C)C(=O)Nc2nncs2)C(=O)O1 (configuration not stated) | 0.2
CCCCOCCCn1c(N)c(C(=O)OC(C)COC)c2nc3ccccc3nc21 (configuration not stated) | 0.3
O=C(N/N=C/C=C/c1ccc2c(c1)OCO2)c1ccc([N+](=O)[O-])cc1 | i
CCCc1nnc(NC(=O)Cn2c(=O)sc3ccccc32)s1 | i
CCOCCCNC(=S)N1C2CCC1CC(NC(=O)NC13CC4CC(CC(C4)C1)C3)C2 (configuration not stated) | 0.8
COCCN(CCOC)S(=O)(=O)c1ccc(C(=O)Nc2nnc(C)o2)cc1 | 0.2
CC(=O)C1=C(C)NC(SCC(=O)c2ccc(-c3ccccc3)cc2)=C(C#N)C1c1cccnc1 (configuration not stated) | 0.3
CCn1c(NN)nc2sc3c(c2c1=O)CCC3 | i
CCOCCn1c(CN2CCOCC2)nc2c1c(=O)[nH]c(=O)n2C | 0.1
O=C(Nc1cccc2nsnc12)C1CC(=O)N(c2ccccc2)C1 (configuration not stated) | i
O=C(N/N=C/c1ccc2cccc(OCc3ccccc3)c2n1)c1ccc(Cl)cc1 | 0.5
Cc1[nH]c(=O)c(C#N)c2c1CSC(C)(C)C2 | 0.5
CCCS(=O)(=O)N1CCN(c2ccccc2F)CC1 | 0.3
Cc1ccc(Oc2nc3ccccc3n3cccc23)cc1 | i
COc1nc(N)c(S(=O)(=O)c2ccccc2)cc1C#N | 1.4
Cc1cccc(N2CCN(C(=O)C(C)C)CC2)c1C | 0.8
CC1CCCN(C(=O)C2CCCN(S(=O)(=O)c3cccc4nsnc34)C2)C1 (configuration not stated) | 2.2
Cn1c(=O)n(Cc2ccccc2)c(=O)c2c1nc1n2CCCN1Cc1ccccc1 | 0.4
SMILES | H5N1 CPE
O=C(Nc1ccc(Cl)cc1)c1ccsn1 | 0.4
Cn1c(-c2ccc(F)cc2)cnc1SCC(=O)NCc1ccco1 | 0.6
COC(=O)c1ccc(C(=O)OC)c(NC(=O)COc2ccccc2OC)c1 | 0.3
CCC/C(O)=C1\C(=O)CC(C)(C)CC1=NCCO | i
O=c1c2sc3nc(N4CCOCC4)c4c(c3c2ncn1CCc1ccccc1)CCCC4 | i
O=C(Nc1ccc(N2CCN(C(=O)c3ccccc3)CC2)c(Cl)c1)c1ccco1 | 1.8
O=[N+]([O-])c1cc(-c2nnc(C34CC5CC(CC(C5)C3)C4)o2)cc([N+](=O)[O-])c1 | i
c1csc(Cc2nn3c(-c4ccncc4)nnc3s2)c1 | 4.3
Cc1ccc2nc(NC(=O)COC(=O)CSc3nc(C)cc(C)n3)sc2c1 | i
CC(=O)c1cccc(NC(=O)C2CCCCC2)c1 | i
CC(C)(C)C(=O)OCCn1c(=O)c2cc3c(=O)n(CCOC(=O)C(C)(C)C)c(=O)c3cc2c1=O | i
CCCCCCN1CC(O)=C(c2nc3ccccc3[nH]2)C1=N | i
O=C(C1CC1)N1CCc2cc(Br)cc(S(=O)(=O)NCc3ccc4c(c3)OCO4)c21 | 0.4
Cc1ccc2[nH]c(=O)c(CN(Cc3ccco3)C(=O)c3ccncc3)cc2c1 | i
COc1ccc(-n2nc(C(=O)Nc3ccc(OC)c(OC)c3)c3c4ccccc4n(C)c3c2=O)cc1 | i
CCCCc1c(O)nc(SCC(=O)NCCc2ccc(OC)c(OC)c2)[nH]c1=O | i
Cc1ccc2cc3cc(C(=O)NCCC(C)C)oc3nc2c1 | i
CN1C2=NCCN2C(=O)c2ccccc21 | 0.2
Cn1c(SCc2nnc(-c3ccc(F)cc3)o2)nnc1C1COc2ccccc2O1 (configuration not stated) | 1.1
COc1ccc(-c2nc(N3CCOCC3)nc3n[nH]c(N)c23)cc1 | 2.2
COc1cc(-c2nnc(SCc3cc(=O)oc4cc(C)ccc34)o2)cc(OC)c1OC | 3.9
CC(C(=O)Nc1ccc(S(=O)(=O)N2CCCC2)cc1)N1CCN(C(=O)c2ccco2)CC1 (configuration not stated) | 0.6
CCOc1ccccc1C1N(c2ccc(OC)cc2)C(=O)C2CCCN21 (configuration not stated) | i
Cc1nc2cc(NCc3nc4ccccc4n3Cc3ccccc3)ccc2n1C | i
O=C(Nc1ccc(Cl)c(Cl)c1)N1CCSC1c1ccco1 (configuration not stated) | 2.0

3 of the compounds above, as tab-separated lines:
compound	H5N1 CPE
CCCCc1c(O)nc(SCC(=O)NCCc2ccc(OC)c(OC)c2)[nH]c1=O	i
Cc1ccc2cc3cc(C(=O)NCCC(C)C)oc3nc2c1	i
CN1C2=NCCN2C(=O)c2ccccc21	0.2

(more compounds)
SMILES | H5N1 CPE
O=C(NCc1ccc(F)cc1)C1CCCN1C(=O)NCc1ccccc1 (configuration not stated) | i
COc1ccccc1CNC(=O)c1ccccc1NS(C)(=O)=O | i
COc1cccc(Nc2nc(-c3sc(NC(=O)c4ccccc4)nc3C)cs2)c1 | i
COc1ccc(C(=O)NC(=S)Nc2ccc3c(c2)Cc2ccccc2-3)cc1 | 0.5
COc1cc(=O)[nH]c(SCc2c(F)c(F)c(F)c(F)c2F)n1 | 0.3
Cc1ccccc1C(=O)NC(=S)Nc1ccccc1C(F)(F)F | 6.7
Fc1cccc(CO/N=C/c2c(-c3ccccc3)nc3ccc(Cl)cn23)c1 | i
Cc1ccccc1OCCCN1C(=O)C(=O)c2cccc(C)c21 | i
CCOC(=O)N1CCN(c2cc(NCCC(=O)O)c3c4c(onc24)-c2ccccc2C3=O)CC1 | 1.4
O=C(CSc1ncn(-c2ccccc2)n1)Nc1nccs1 | i
COc1ccc(Cl)cc1NC(=O)CSc1nnc(Cn2c(=O)sc3ccccc32)n1C | 0.4
O=C(CN(C(=O)CCNC(=O)c1ccco1)c1ccccc1)NC1CCCC1 | 0.3

Part of the list above in order of molar mass, low to high.
SMILES | H5N1 CPE
O=C(CSc1ncn(-c2ccccc2)n1)Nc1nccs1 | i
COc1ccccc1CNC(=O)c1ccccc1NS(C)(=O)=O | i
Cc1ccccc1C(=O)NC(=S)Nc1ccccc1C(F)(F)F | 6.7
Fc1cccc(CO/N=C/c2c(-c3ccccc3)nc3ccc(Cl)cn23)c1 | i
O=C(CN(C(=O)CCNC(=O)c1ccco1)c1ccccc1)NC1CCCC1 | 0.3
